NTR1 ag – agonists of NTR1, primary screen, imaging, U2OS cells, beta-arrestin-GFP, high content (AID 493036); NTR1-U2OS beta-arrestin-GFP spot imaging, agonist mode; activation, % at 20 µM; actives 0.17% (n = 330,000);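 active = activation at or above 40% of the spot to cytoplasm intensity ratio, with at least 20 cells analyzed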;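 note: 0% = DMSO without peptide and 100% = 100 nM NTR1 peptide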
Target sequence (P30989 whole entry, looked up): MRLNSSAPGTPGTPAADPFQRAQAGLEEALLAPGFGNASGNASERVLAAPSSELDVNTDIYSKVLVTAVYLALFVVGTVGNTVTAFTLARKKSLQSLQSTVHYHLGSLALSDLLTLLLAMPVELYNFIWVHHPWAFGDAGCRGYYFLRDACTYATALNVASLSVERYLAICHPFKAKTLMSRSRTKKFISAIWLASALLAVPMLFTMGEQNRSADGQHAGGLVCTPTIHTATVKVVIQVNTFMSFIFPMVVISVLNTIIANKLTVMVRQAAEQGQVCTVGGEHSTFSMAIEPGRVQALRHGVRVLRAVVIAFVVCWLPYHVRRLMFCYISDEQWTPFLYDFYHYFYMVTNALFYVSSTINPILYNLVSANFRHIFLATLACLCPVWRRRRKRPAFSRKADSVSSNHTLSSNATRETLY
GPR55 LPI antagonism – GPR55 antagonists blocking LPI-driven arrestin recruitment, primary screen, imaging, U2OS, beta-arrestin-GFP, LPI agonist (AID 2013); U2OS GPR55 beta-arrestin-GFP translocation imaging, LPI antagonism; higher % means a stronger effect; inhibition, % at 10 µM, or IC50 in µM where a hit was titrated; actives 0.13% (n = 290,000);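 active = spots per cell inhibited over 60%, with over 100 cells counted and total cytoplasm intensity under 500,000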;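 note: U2OS cells stably carrying GPR55 and arrestin-GFP stimulated by 5 µM LPI near EC80; imaged beta-arrestin-GFP aggregate spots per cell after agonist stimulation; plate controls were LPI-stimulated DMSO wells for no effect and DMSO wells without LPI for full effect; some results filed as inactive read as strong as hits; confirmed hits need IC50 under 10 µM and bright autofluorescent wells are also inconclusive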
T cell modulator – T cell immune modulation candidate. actives 0.068% (n = 330,000). calls only at 7 µM. 2C CD8+ T cell-vesicle binding, flow cytometry; stronger effect = lower value;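 active = response, share of CD8 T cells binding vesicles, and their 90th percentile fluorescence all below set limits, cut at about 80% in these data, passing the limit was not always enough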
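Assay system: 2C TCR transgenic mouse naive CD8+ T cells, MACS-purified | Read-out: CD8+ gate FL2 mean fluorescence as % of same-row positive control | Signal: High-throughput flow cytometry with anti-B7-1 and anti-CD8 staining | Timing: Binding step 1.5 h, 37 °C, antibody labelling 20 min, ice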
West Nile antiviral – West Nile virus antiviral activity, cell-based, CPE readout (AID 1621); West Nile virus-infected cells, CPE inhibition; higher % means a stronger effect; one-dose CPE inhibition, % at 10 µM; IC50 in µM for titrated hits; actives 0.02% (n = 290,000); in the data active = a potency from the dose series; note: strong numbers were not always called active
GPR35 arrestin U2OS – inhibition of zaprinast-stimulated GPR35 beta-arrestin translocation – imaging, U2OS, beta-arrestin-GFP, zaprinast agonist, primary screen (AID 2058); inhibition, % at 10 µM, or IC50 in µM where a hit was titrated; actives 0.052% (n = 290,000); U2OS GPR35 beta-arrestin-GFP translocation imaging, zaprinast antagonism; higher % means a stronger effect;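 active = inhibition of at least 50% with at least 30 cells and total cytoplasm GFP at most 10,000,000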
GPR55 beta-arrestin – selective activators of receptor GPR55 – imaging, U2OS cells, beta-arrestin-GFP redistribution, primary screen (AID 1961); U2OS GPR55 beta-arrestin-GFP redistribution imaging; higher % means a stronger effect; activation, % at 10 µM; hits with a dose series show EC50 in µM; actives 0.048% (n = 290,000);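 active = activation above 40% with more than 50 cells counted in the well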;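 note: U2OS osteosarcoma cells stably expressing GPR55 and beta-arrestin-GFP; plate controls were DMSO negative control for no effect and LPI positive control for full effect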
T cell modulator vesicle-bound % – recorded beside T cell modulator, whose call it bears; double positive events, %; measured here: CD8+ vesicle-bound cell fraction;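 binding gate set so that unloaded-vesicle control wells show 10% double positive cells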
NTR1 ag cell count 20 µM – also measured in NTR1 ag; calls as there; cell count; measured here: cell count, cytotoxicity flag
* marks the source's active call; other numbers are inactive results; i = inactive; / = no result given. Not all compounds are listed; the hit share may differ from the screen's.

Each structure is followed by: T cell modulator vesicle-bound %, West Nile antiviral, T cell modulator, GPR55 beta-arrestin, NTR1 ag, GPR55 LPI antagonism, NTR1 ag cell count 20 µM, GPR35 arrestin U2OS
CNC(=O)Oc1cccc2ccccc12
    51, 0.4%, i, 0.2%, 0.0, 2%, 51, -2%
CC[C@H]1C2C[C@H]3[C@@H]4N(C)c5ccccc5C45C[C@H](C2[C@H]5O)N3[C@@H]1O (stereo partly specified)
    23, /, i, /, 0.1, /, 59, /
CCOC(=O)c1c(NC(=O)c2c(N)n(CCCOC)c3nc4ccccc4nc23)sc2c1CCCC2
    36, 1.2%, i, -0.1%, 6.6, 8%, 65, 24%
CS(=O)(=O)N1CCCC(C(=O)N2CCC3(CC2)OCCO3)C1 (stereo unspecified)
    12, 0.2%, i, -0.1%, -1.1, 26%, 59, 2%
CCOC(C(=O)OCCCN(CC)CC)(c1ccccc1)c1ccccc1
    34, -0.2%, i, -0.1%, 1.3, 7%, 86, 13%
O=C(Nc1ccc(Cl)cc1C(=O)c1ccccc1Cl)c1ccco1
    9, -0.1%, i, -0.1%, 9.8, 3%, 48, -8%
CCOCN(C(=O)CCl)c1c(C)cccc1CC
    12, /, i, /, 1.4, /, 70, /
O=[N+]([O-])c1ccc(C2[C@H]3C(c4ccccc4)=NC4(CCCCC4)N23)cc1 (stereo partly specified)
    58, -0.5%, i, -0.2%, 6.5, 10%, 99, 1%

Already shown: an excerpt of the list.
Each structure is followed by: T cell modulator vesicle-bound %, West Nile antiviral, T cell modulator, GPR55 beta-arrestin, NTR1 ag, GPR55 LPI antagonism, NTR1 ag cell count 20 µM, GPR35 arrestin U2OS
CC[C@H]1C2C[C@H]3[C@@H]4N(C)c5ccccc5C45C[C@H](C2[C@H]5O)N3[C@@H]1O (stereo partly specified)
    23, /, i, /, 0.1, /, 59, /
CCOC(=O)c1c(NC(=O)c2c(N)n(CCCOC)c3nc4ccccc4nc23)sc2c1CCCC2
    36, 1.2%, i, -0.1%, 6.6, 8%, 65, 24%
CS(=O)(=O)N1CCCC(C(=O)N2CCC3(CC2)OCCO3)C1 (stereo unspecified)
    12, 0.2%, i, -0.1%, -1.1, 26%, 59, 2%
CCOC(C(=O)OCCCN(CC)CC)(c1ccccc1)c1ccccc1
    34, -0.2%, i, -0.1%, 1.3, 7%, 86, 13%
O=C(Nc1ccc(Cl)cc1C(=O)c1ccccc1Cl)c1ccco1
    9, -0.1%, i, -0.1%, 9.8, 3%, 48, -8%
CCOCN(C(=O)CCl)c1c(C)cccc1CC
    12, /, i, /, 1.4, /, 70, /
O=[N+]([O-])c1ccc(C2[C@H]3C(c4ccccc4)=NC4(CCCCC4)N23)cc1 (stereo partly specified)
    58, -0.5%, i, -0.2%, 6.5, 10%, 99, 1%

From PubChem BioAssay
